# Screening results (PubChem)
# Beta apoptosis: beta cell apoptosis inhibition. INS-1E cytokine-induced death, ATP luminescence, 48 h; percent of positive-control rescue, neutral wells zero. hit rate 0.8% among 300,000. protection from apoptosis, % (concentration not given with the values);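 active means all replicates at 75% or more, or half of them and the mean; inconclusive means half reach 75% but not the mean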;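 further: 0% = cytokine-treated negative control wells and 100% = positive control rescue; higher means more ATP so stronger rescue from cytokine killing; wells of about 40 µL received 100 nL stock; the first replicate is given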
# Bfl-1 A1 inh: inhibitors of the anti-apoptotic protein A1, read as caspase activation | MEF A1-2A-BIM cells, Caspase-Glo 3/7 luminescence, 3 h; percent of clofoctol response, vehicle zero | caspase activation, % (no concentration beside the values) | hit rate 0.066% among 330,000;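 active means over half of replicate activation scores above 10%, or exactly half above 10 with the replicate mean above 10; inconclusive means replicate mean below 10 yet half the replicates above 10; inactive means over half of replicates below 10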;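 further: wells of about 30 µL received 50 nL stock; many hits fall short of the cut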
# RanGTP-Impb inh: disruptors of Ran-importin-beta complex formation – biochemical, FRET, CFP-Ran, YFP-importin-beta, homogeneous, primary screen; inhibition, % (no concentration beside the values); cell-free CFP-Ran/YFP-importin-beta FRET ratio; AID 2216; hit rate 1.1% among 300,000;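 active means most replicates above 15%; inconclusive means exactly half above 15%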;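 further: 0% = DMSO wells and 100% = Ran loaded with GDP instead of GTP; wells of about 40 µL received 100 nL stock; the first replicate is given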
# UCH37 inh: human UCH37 deubiquitinating enzyme inhibition; Q9Y5K5; inhibition, % (concentration not given with the values); purified proteasome/UCH37, Ub-AMC cleavage fluorescence; hit rate 0.33% among 330,000;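 active means mean of two replicates above 20%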;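 further: 0% = compound-free wells with enzyme and 100% = wells lacking proteasome; stock transfer was 100 nL into about 20 µL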
#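 Assay system: Proteasome-bound UCH37. Buffer or medium: pH 7.4 Tris-HCl (50 mM) with ovalbumin, ATP-MgCl2, DTT. Incubation: 30 min preincubation with enzyme, 25 min cleavage at room temperature. Measured by: fluorescence, ex 355 nm, em 460 nm. Read-out basis: percent inhibition. Control set: wells without proteasome as full block, compound-free enzyme plus substrate as uninhibited.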
# B2AR ag: activates human beta-2 adrenergic receptor causing internalization; P07550; Am2.2-beta2AR cells, FAP receptor internalization, flow cytometry; reference of the scale not given here; response, % (no concentration beside the values); hit rate 0.43% among 340,000; AID 504454;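 active means response above a set limit, near 3 SD of response in nonfluorescent compounds, cut at about 42% in these data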;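 further: stock transfer was 100 nL into about 11 µL; a reference agonist was the positive control; negative values mostly stem from fluorescent compounds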
# Calb FLC: C. albicans growth modulation with fluconazole. C. albicans CaCi-2 (fluconazole-resistant clinical isolate) + fluconazole, Alamar Blue growth, 48 h. growth inhibition, % (no concentration beside the values). hit rate 0.57% among 300,000. AID 1979;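 active means most replicates above 75%; inconclusive means exactly half above 75%; inactive means most below 75%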;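 further: all wells also contain fluconazole at 8 µg/ml as a sub-toxic cotreatment; 0% = median of DMSO wells and 100% = median of geldanamycin control wells; wells of about 8 µL received 7.5 nL stock; the first replicate is given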
# T cruzi inh: T. cruzi replication inhibition; T. cruzi beta-gal in NIH3T3, luminescence, 90 h; hit rate 1.4% among 300,000; inhibition, % (concentration not given with the values);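 active means mean inhibition across valid replicates above about 55%, limit read from the data; inconclusive means mean below that limit but half or more replicates reach it; inactive means mean below it, under half of replicates reach it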;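 further: signal also drops with host cell toxicity which is not excluded here; 0% = plate median of DMSO wells and 100% = zero luminescence signal; higher percent means less beta-gal luminescence so fewer parasites; stock transfer was 50 nL into about 50 µL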
# LANA-H2A inh: blocks KSHV LANA binding to histone H2A/H2B | Q9QR71 | cell-free LANA-H2A/H2B peptide, fluorescence polarization | inhibition, % (concentration not given with the values) | hit rate 0.6% among 320,000; in the data active means inhibition mostly above about 10%, no sharp cut-off; inactive means mostly below about 6.7%;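 further: stock transfer was 7.5 nL into about 10 µL; 0% = median of vehicle wells and 100% = median of positive control wells; one replicate is shown; the record names a cut of 25% in any replicate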
# Target sequence (Q9QR71 whole entry, looked up): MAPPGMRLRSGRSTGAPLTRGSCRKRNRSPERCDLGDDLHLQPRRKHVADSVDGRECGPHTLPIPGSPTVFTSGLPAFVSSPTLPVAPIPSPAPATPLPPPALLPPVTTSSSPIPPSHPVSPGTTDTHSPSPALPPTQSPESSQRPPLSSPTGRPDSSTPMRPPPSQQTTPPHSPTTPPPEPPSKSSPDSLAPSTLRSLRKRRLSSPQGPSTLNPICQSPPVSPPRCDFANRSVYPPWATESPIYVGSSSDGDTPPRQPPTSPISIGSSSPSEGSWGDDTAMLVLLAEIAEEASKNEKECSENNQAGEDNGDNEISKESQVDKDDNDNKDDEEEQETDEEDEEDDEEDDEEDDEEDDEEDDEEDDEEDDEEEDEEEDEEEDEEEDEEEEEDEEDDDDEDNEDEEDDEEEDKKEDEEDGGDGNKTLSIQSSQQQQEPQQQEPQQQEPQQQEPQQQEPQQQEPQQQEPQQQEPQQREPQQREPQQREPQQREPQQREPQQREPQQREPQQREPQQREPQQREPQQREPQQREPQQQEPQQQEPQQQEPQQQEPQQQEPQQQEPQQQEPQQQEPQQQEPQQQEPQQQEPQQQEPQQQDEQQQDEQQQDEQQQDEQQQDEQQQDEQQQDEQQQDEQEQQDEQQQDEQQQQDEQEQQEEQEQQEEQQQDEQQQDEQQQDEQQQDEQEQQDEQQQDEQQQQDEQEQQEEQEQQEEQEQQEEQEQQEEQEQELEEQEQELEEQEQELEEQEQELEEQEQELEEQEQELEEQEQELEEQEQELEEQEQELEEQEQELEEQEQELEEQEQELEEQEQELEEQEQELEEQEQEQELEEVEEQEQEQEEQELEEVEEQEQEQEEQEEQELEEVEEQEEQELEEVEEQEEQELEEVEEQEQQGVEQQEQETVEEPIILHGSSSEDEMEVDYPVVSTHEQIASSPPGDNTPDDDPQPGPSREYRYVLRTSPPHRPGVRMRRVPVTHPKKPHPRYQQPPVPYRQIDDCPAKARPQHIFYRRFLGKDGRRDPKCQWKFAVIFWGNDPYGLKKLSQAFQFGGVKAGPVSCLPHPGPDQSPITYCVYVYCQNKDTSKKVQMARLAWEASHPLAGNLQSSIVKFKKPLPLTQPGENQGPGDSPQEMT
# Numbers without * were called inactive; ? = inconclusive; · = not tested or not shown. Not a hit list. Share with any hit: about 4.3%.
canonical_smiles	Beta apoptosis	Bfl-1 A1 inh	RanGTP-Impb inh	UCH37 inh	B2AR ag	Calb FLC	T cruzi inh	LANA-H2A inh
C/C(CC(=O)NCc1ccco1)=N\NC(=O)Cc1ccc(Cl)cc1	-4	0.0	-3.0	·	3	4	-14	5.0
CN(C)S(=O)(=O)c1ccc(S(=O)(=O)NCc2cccs2)cc1	-2	0.5	0.2	·	-1	-2	2	-3.2
CCOC(=O)c1sc(NC(=O)CCN2CCN(CC)CC2)c(C(=O)OCC)c1C	-1	0.2	3.3	1.4	6	0	31	-0.7
CN(CC(=O)Nc1ccccc1Cl)C(=O)COC(=O)c1ccc([N+](=O)[O-])cc1Cl	2	-0.8	·	3.7	1	-1	0	4.1
Cc1ccc(S(=O)(=O)N2CCN(S(=O)(=O)c3ccc(C)cc3)C2c2ccccc2)cc1	6	-0.6	0.3	1.5	-8	-11	12	-3.6
Oc1ccc(CN2CCC(Cc3ccccc3)CC2)c2cccnc12	·	·	4.9	1.3	·	112*	50	·
CSc1ccccc1C(=O)NCCSC(C)(C)C	5	-0.3	1.7	4.0	2	-13	10	-0.8
O=C(NC1CCCc2c1cnn2-c1cc(F)cc(F)c1)c1cc[n+]([O-])cc1 (stereo not given)	2	0.3	-0.5	0.1	-4	-4	1	-3.0
CCOc1cc(Cl)c(CNCCCN2CCOCC2)cc1OC	-1	0.0	3.3	-1.2	-2	-8	1	3.0
COc1ccc(CCNC(=O)Cc2cc(OC)c(OC)cc2[N+](=O)[O-])cc1OC	1	-0.1	3.1	9.1	-3	-4	5	-2.5
Cn1cccc1C1CCCN1CC(=O)Nc1ccc(F)c(F)c1F (stereo not given)	-1	-0.2	·	4.2	12	·	·	-1.4
CC1CCN(C(=O)c2[nH]cnc2C(=O)Nc2ccon2)CC1	2	-0.2	·	-3.1	-10	·	·	-0.4
CC(C)(C)c1ccc(S(=O)(=O)N2CCN(C(=O)C3=COCCO3)CC2)cc1	2	0.7	·	3.5	-10	·	·	-0.1
Cc1c(Cl)cccc1NC(=O)Nc1ccn(C)n1	-3	0.8	2.5	1.2	7	-1	-8	-8.6
Cc1ccc(C)c(C(=O)OCC(=O)Nc2cccc(S(=O)(=O)N3CCCCC3)c2)c1	10	1.1	·	·	-6	·	·	-3.4
CON(C)C(=O)CC(CN(Cc1ccccc1)C(=O)OC(C)(C)C)c1ccc(Cl)cc1 (stereo not given)	-1	0.1	·	0.0	5	·	·	-464
O=C(NNC(=O)c1ccc(F)c(S(=O)(=O)N2CCOCC2)c1)c1ccc(Br)cc1	0	0.3	·	4.5	-7	·	·	1.9
O=C(COc1ccccc1)Nc1ccc(S(=O)(=O)Nc2ccccn2)cc1	2	-0.5	-2.1	-2.7	3	-1	-8	-5.3
O=C(CCc1ccccc1)N1CCN(c2ccccc2F)CC1	1	0.8	3.8	3.5	5	5	-4	1.6
Cc1cccc(N(C(=O)CNC(=O)c2ccco2)C(C(=O)NC2CCCC2)c2ccncc2)c1 (stereo not given)	-8	-0.2	9.1	-2.1	-8	0	-6	-1.0
COCCn1cnc2c1c(=O)n(CC(=O)NN)c(=O)n2Cc1ccccc1	-6	1.0	-7.8	2.5	-15	-5	2	-2.0
CC(=O)N1CCN(S(=O)(=O)c2cccc(C(=O)NC3CC3)c2)CC1	-2	-0.2	·	0.4	-6	·	·	-3.5
CC(C)CC(=O)Nc1cccc(NC(=O)c2ccccc2Cl)c1	5	0.3	-0.1	4.4	4	-4	-3	-10
COc1ccc(C(C(=O)NC2CCCCC2)N(C(=O)Cc2c[nH]c3ccccc23)c2ccccc2)cc1OC (stereo not given)	-2	-0.3	-1.8	4.8	2	4	33	4.0
O=C(CSc1cccc2cccc(Cl)c12)NC1=NCCS1	-14	-0.4	1.5	4.2	8	11	-5	3.6

# Three records picked at random from the list so far:
canonical_smiles	Beta apoptosis	Bfl-1 A1 inh	RanGTP-Impb inh	UCH37 inh	B2AR ag	Calb FLC	T cruzi inh	LANA-H2A inh
CCOC(=O)c1sc(NC(=O)CCN2CCN(CC)CC2)c(C(=O)OCC)c1C	-1	0.2	3.3	1.4	6	0	31	-0.7
CN(CC(=O)Nc1ccccc1Cl)C(=O)COC(=O)c1ccc([N+](=O)[O-])cc1Cl	2	-0.8	·	3.7	1	-1	0	4.1
Oc1ccc(CN2CCC(Cc3ccccc3)CC2)c2cccnc12	·	·	4.9	1.3	·	112*	50	·

# More structures:
canonical_smiles	Beta apoptosis	Bfl-1 A1 inh	RanGTP-Impb inh	UCH37 inh	B2AR ag	Calb FLC	T cruzi inh	LANA-H2A inh
N=c1n(Cc2ccc(Cl)cc2)c2ccccc2n1CC(O)c1ccco1 (stereo not given)	42	0.8	·	0.4	26	·	·	-1.9
Cc1nn(C(C)C(=O)NCCc2cccs2)c(=O)c2nn(-c3ccccc3)c(C)c12 (stereo not given)	-5	0.1	-1.1	2.0	11	0	-11	-3.9
CN1CCC(N(C)C(=O)CNC(=O)c2ccc(C(C)(C)C)cc2)CC1	·	0.0	1.7	1.4	1	?	-15	6.2
COc1ccc(NC(=O)Cn2nnc(C(=O)NCc3ccc(C)cc3)c2N)cc1OC	-4	0.7	-2.4	7.4	1	1	8	0.6
O=C(Nc1cccc2ncccc12)c1ccc2c(c1)OCCO2	1	-0.7	1.7	8.1	-2	?	-7	-7.1
CNc1ccncc1S(=O)(=O)NC	-5	0.8	3.4	0.0	2	2	-15	0.8
COc1ccc(S(=O)(=O)NCCOc2ccccc2)cc1F	·	-0.2	-1.0	1.0	11	-2	-10	-16
COc1ccccc1C1NC(=O)CCC1[N+](=O)[O-] (stereo not given)	-4	0.6	-3.4	-0.2	-4	-4	-5	-0.1
O=C(Nc1ccc(O)cc1C(=O)O)c1ccc2c(c1)C(=O)N(Cc1ccco1)C2=O	0	-1.3	5.0	8.9	4	-4	-5	0.7
COc1ccccc1C(=O)N1CCNC(=O)C1CC(=O)Nc1ccc(Cl)cc1 (stereo not given)	0	-0.1	2.7	3.9	3	5	3	-4.2
Cc1ccc(OCC(O)Cn2c3ccccc3c3ccccc32)cc1 (stereo not given)	38	0.5	1.8	0.8	2	1	16	1.1
CC1CCCC/C1=N\NC(=S)Nc1ccccc1 (stereo not given)	3	1.6	0.4	·	-13	-16	-8	1.9
O=C(OC1C2CCC1C1CN(CCc3ccccc3)CC12)c1ccccc1 (stereo not given)	34	0.3	3.5	0.3	1	-1	44	5.1
COc1ccc(N=Cc2c(C)[nH][nH]c2=O)cc1	17	1.4	5.4	4.7	-1	-27	3	1.0
COc1ccccc1-c1csc(NC(=O)c2cc(-c3cccs3)nc3ccccc23)n1	1	0.8	-0.1	-14	-4	1	2	2.3
Cc1ccc(S(=O)(=O)NCC(=O)NCC(=O)OCC(=O)N2CC(=O)Nc3ccccc32)cc1C	2	0.0	3.1	4.3	-5	-2	-19	0.8
Cc1ccc(CN2CCC(n3nccc3NC(=O)CCOc3ccccc3)CC2)o1	-6	1.1	-0.2	4.1	-7	4	1	-5.3
CC1(C)CC(=O)c2sc(N)nc2C1	3	1.2	-0.9	2.7	-3	-15	3	5.8
Cc1onc(-c2ccccc2)c1C(=O)c1ccccc1	-2	0.4	0.5	·	10	-4	1	-0.4
CCCNC(=O)Nc1cc(OCC)c(N2CCOCC2)cc1OCC	-1	0.3	-2.7	-0.1	-2	1	4	-0.8
NC(=O)NC(=O)COC(=O)c1cccnc1Nc1ccccc1F	-2	-3.6	-1.0	-13	1	1	-4	-2.3
CCCCn1c(SCC(=O)N(CC)C2CCS(=O)(=O)C2)nnc1C(CC)N(C)C (stereo not given)	-2	-0.4	-1.4	-1.2	-4	7	9	6.8
Cc1ccc(Nc2nc3ccccc3[nH]2)nc1	23	-3.5	-3.1	1.3	1	-7	36	4.5
COc1ccc(N2CCN(c3ncnc4scc(-c5ccccc5)c34)CC2)cc1	11	-0.5	9.3	-0.1	0	12	20	5.0
CCc1nc(SCC(=O)Nc2cc(OC)ccc2OC)c2c(C)c(C)sc2n1	16	-0.2	6.8	-0.1	12	-3	-8	5.4
CCc1nc(NCCN)c(C#N)c2c1CSC(C)(C)C2	·	0.1	-2.2	-17	7	-7	25	1.1
Cc1c(N(C)C(=O)C2CCCN2S(=O)(=O)c2ccccc2)c(=O)n(-c2ccccc2)n1C (stereo not given)	-34	1.2	1.3	3.5	1	18	9	1.0
CCOc1ccc(C(=O)NCCC2=CCCCC2)cc1OCC	-2	-0.8	-4.2	32*	3	-7	28	-2.1
CC(NC1CCCC1)C(=O)Nc1ccccc1-c1ccccc1 (stereo not given)	·	-0.2	-1.0	1.0	-7	-14	-7	-3.0
Cc1ccc2cccc(OCC(=O)N3CCc4ccccc43)c2n1	0	-2.5	·	-2.3	-1	9	·	1.5
CCOC(=O)c1cc(-c2ccccc2)sc1NC(=O)COC(=O)c1cccc(S(N)(=O)=O)c1	35	0.7	-2.1	-5.7	-6	-2	5	4.5

# Molecules shown so far that have an aryl thioether with sulfur outside any ring:
canonical_smiles	Beta apoptosis	Bfl-1 A1 inh	RanGTP-Impb inh	UCH37 inh	B2AR ag	Calb FLC	T cruzi inh	LANA-H2A inh
CSc1ccccc1C(=O)NCCSC(C)(C)C	5	-0.3	1.7	4.0	2	-13	10	-0.8
O=C(CSc1cccc2cccc(Cl)c12)NC1=NCCS1	-14	-0.4	1.5	4.2	8	11	-5	3.6
CCCCn1c(SCC(=O)N(CC)C2CCS(=O)(=O)C2)nnc1C(CC)N(C)C (stereo not given)	-2	-0.4	-1.4	-1.2	-4	7	9	6.8
CCc1nc(SCC(=O)Nc2cc(OC)ccc2OC)c2c(C)c(C)sc2n1	16	-0.2	6.8	-0.1	12	-3	-8	5.4
